RGS16-Gao HTS – RGS16-Galphao interaction regulator (human). O15492+P09471. bead-based flow cytometry RGS16-Galphao binding, fluorescence; actives lie on both sides. binding response (% of control), % at 10 µM. 0.38% of 220,000 active. AID 1441;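 active = below 25% or above 175%, edge rows of some plates excepted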;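 also: Galphao activated by GDP with aluminum fluoride before binding; 100% = wells without compound and 0% = beads without RGS; some results beyond the cut were filed as inactive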
Target sequence (O15492 whole entry, looked up): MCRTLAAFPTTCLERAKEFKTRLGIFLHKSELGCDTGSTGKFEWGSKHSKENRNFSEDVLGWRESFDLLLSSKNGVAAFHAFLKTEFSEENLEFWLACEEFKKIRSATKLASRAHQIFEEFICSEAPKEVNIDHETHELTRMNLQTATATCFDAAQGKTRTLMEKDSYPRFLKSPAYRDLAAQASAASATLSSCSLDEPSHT
Target sequence (P09471 whole entry, looked up): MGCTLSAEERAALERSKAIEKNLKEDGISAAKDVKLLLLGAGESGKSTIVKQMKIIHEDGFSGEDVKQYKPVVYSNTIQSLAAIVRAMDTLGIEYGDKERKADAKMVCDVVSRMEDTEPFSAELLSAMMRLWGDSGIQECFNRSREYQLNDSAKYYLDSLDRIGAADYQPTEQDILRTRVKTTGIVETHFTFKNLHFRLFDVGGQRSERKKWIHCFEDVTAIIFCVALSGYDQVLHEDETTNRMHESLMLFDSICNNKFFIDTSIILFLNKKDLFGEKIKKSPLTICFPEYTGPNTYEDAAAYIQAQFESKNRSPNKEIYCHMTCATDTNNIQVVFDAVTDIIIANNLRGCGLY
HSV augment – increases HSV replication in cells; HSV replication augmentation in cells, fold increase; 0.005% of 220,000 active; maximum fold increase;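 active = peak rise of 1.5-fold or more in the series; tested in PC3 cells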;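 also: first round at 10 µM; read as green reporter fluorescence; hits show the peak of a series up to 25 µM; 1 = signal of infected wells without compound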
INS promoter inh – TRM-6 insulin promoter activity inhibition; TRM-6 cells (human fetal islet line), insulin promoter-eGFP reporter, imaging; reporter expression induced with tamoxifen; inhibition, % at 2 µM; 0.9% of 130,000 active; AID 1273;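 active = inhibition above the mean plus 3 SD, with well images judged a real hit on visual review, cut at about 60% in these data, passing the limit was not always enough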
PKD1 kinase inh – PKD1 (human) kinase inhibition. Q15139. AID 797. inhibition, %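 (about 10 µM by stock and volumes)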. PKD1 kinase fluorescence polarization assay. 0.056% of 200,000 active;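 active = inhibition of 50% or more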;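 also: controls were vehicle for no effect and a reference inhibitor for full effect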
GALR2 ag – GALR2 (human) receptor agonism; 0.48% of 140,000 active; activation, %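 (tested at 5 µM)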; GALR2-expressing cells, agonist activation read-out; O43603;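 active = above mean plus 3 SD of all compounds, about 5% in these data, not always enough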;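 also: 0% = vehicle buffer wells and 100% = reference agonist at full effect; tested in CHO reporter cells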
Target sequence (O43603 whole entry, looked up): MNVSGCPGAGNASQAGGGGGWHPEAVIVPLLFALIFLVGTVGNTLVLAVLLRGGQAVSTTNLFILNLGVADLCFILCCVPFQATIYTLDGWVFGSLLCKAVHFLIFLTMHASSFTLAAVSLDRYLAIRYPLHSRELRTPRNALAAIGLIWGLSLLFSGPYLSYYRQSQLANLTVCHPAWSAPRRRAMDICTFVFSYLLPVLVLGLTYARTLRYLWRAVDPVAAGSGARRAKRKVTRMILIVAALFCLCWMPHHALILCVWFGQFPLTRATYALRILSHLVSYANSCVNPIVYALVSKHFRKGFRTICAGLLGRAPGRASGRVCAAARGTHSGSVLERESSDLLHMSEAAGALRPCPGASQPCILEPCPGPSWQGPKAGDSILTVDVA
INS promoter inh cell count – further read-out of INS promoter inh, marked with its call; normalized cell count, %; measured here: cell count, toxicity; reference of the scale not given here;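 cells exposed to compound for 48 h; stained nuclei by imaging scaled within each plate; lower means fewer cells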
HSV augment primary fold – second read-out of HSV augment, no call of its own (marks repeat the call); fold increase; compound at 10 µM; measured here: primary screen fold increase 10 uM; tested in PC3 cells;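 GFP signal in the first replicate; 1 = infected wells without compound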
* hit, by the source's call; i = inactive; . = not tested or not shown. This is a random part of the collection, and some 1.3% of all compounds hit somewhere here.

# | Molecule | RGS16-Gao HTS | HSV augment | HSV augment primary fold | INS promoter inh
1 | Cc1nc(C)c(C(=O)O)c(-c2cccs2)c1C(=O)O | 103 | i | 1 | .
2 | COc1ccc(OCCCC(=O)Oc2ccc(OC)cc2)cc1 | 99 | i | 0.8 | .
3 | c1ccc(Sc2nc(N3CCCCC3)nc(N3CCCCC3)n2)nc1 | 101 | i | 0.84 | -4
4 | Cc1cccc(/C=N/NC(=O)c2cccc([N+](=O)[O-])c2)n1 | 108 | i | 0.96 | .
5 | COC(=O)[C@@]1(Cc2ccc(F)cc2)[C@H]2c3cc(C(=O)N(C)C)n(CCSCCO)c3C[C@H]2CN1C(=O)c1ccccc1 | 103 | i | 0.75 | -30
6 | O=C(O)CCC(=O)N(Cc1cccnc1)Cc1cccc(F)c1 | 100 | i | 0.9 | 27
7 | CCn1c(-c2ccc(C)cc2)n[nH]c1=S | 95 | i | 1.1 | -11
8 | CCc1cc(Br)ccc1N1C(=O)C2CC=CCC2C1=O (stereo not given) | 99 | i | 1 | -31
9 | O=C(O)c1cccc(N2C(=S)N=C(Nc3ccccc3)C23CCCCC3)c1 | 104 | i | 1 | 6
10 | Cc1oc2nc(SCCCC(=O)NCCCO)nc(N)c2c1C | 105 | . | . | .
11 | CCN(CC)S(=O)(=O)c1ccc(N2CCOCC2)c(NC(=O)c2ccccc2F)c1 | 102 | i | 1.1 | 28
12 | CN(C)/C=N/c1nccc(-c2cccs2)n1 | 71 | i | 0.98 | -22

# | INS promoter inh cell count | PKD1 kinase inh | GALR2 ag
1 | . | . | .
2 | . | 1 | -2.8
3 | 87 | 3 | 0.1
4 | . | -4 | .
5 | 123 | -3 | -1.4
6 | 67 | 3 | -1.8
7 | 144 | 7 | -0.6
8 | 109 | -8 | -0.2
9 | 92 | -2 | .
10 | . | 2 | -2.2
11 | 179 | -3 | .
12 | 99 | 1 | .

Rewritten with each value named: entries from further up.
(1) Cc1nc(C)c(C(=O)O)c(-c2cccs2)c1C(=O)O
  RGS16-Gao HTS = 103 | HSV augment = i | HSV augment primary fold = 1 | INS promoter inh = . | INS promoter inh cell count = . | PKD1 kinase inh = . | GALR2 ag = .

(2) COc1ccc(OCCCC(=O)Oc2ccc(OC)cc2)cc1
  RGS16-Gao HTS = 99 | HSV augment = i | HSV augment primary fold = 0.8 | INS promoter inh = . | INS promoter inh cell count = . | PKD1 kinase inh = 1 | GALR2 ag = -2.8

Additional entries.
# | Molecule | RGS16-Gao HTS | HSV augment | HSV augment primary fold | INS promoter inh
13 | CN(Cc1nccn1C)C(=O)CC1C(=O)NCCN1Cc1cccc(Oc2ccccc2)c1 (stereo not given) | 93 | i | 1 | .
14 | CCOC(=O)c1c(CN2CCN(C)CC2)n(C)c2cc(Br)c(OC)cc12 | 106 | i | 0.74 | -81
15 | CC1/C(=C\c2ccc(Cl)cc2)C(=O)C2CC1C2(C)C (stereo not given) | 85 | i | 1 | 32
16 | Cc1ccc(N2C(=O)c3ccccc3C2O)nc1 (stereo not given) | 104 | . | . | .
17 | Cc1cc(C(=O)NNc2ccc(C)c(C)c2)no1 | 104 | i | 1 | .
18 | CCOC(=O)c1c(C)[nH]c(=S)c(C#N)c1-c1ccccc1 | 112 | i | 0.9 | 0
19 | O=C(CNC(=O)c1ccc2c(c1)OCO2)N/N=C(Br)/C=C/c1ccccc1 | 116 | i | 0.93 | .
20 | Cn1cc(CN2CCN(c3ccccc3)CC2)c2ccccc21 | 108 | i | 0.91 | .
21 | CC(/C=C/c1ccc(N(C)C)cc1)=N\N=C(/N)SC1CC(=O)N(c2ccc(C(=O)O)cc2)C1=O (stereo not given) | 91 | i | 1.2 | .
22 | O=C(CCc1ccccc1)Nc1cc(Cl)ccc1O | 93 | i | 0.9 | -68
23 | CCc1ccc(NC(=O)c2n[nH]c(=O)c3ccccc23)cc1 | 103 | i | 1.2 | .
24 | CCc1ccccc1NC(=O)c1cnc2n(c1=O)CCS2 | 102 | i | 0.92 | .

# | INS promoter inh cell count | PKD1 kinase inh | GALR2 ag
13 | . | 1 | .
14 | 52 | -11 | 0.3
15 | 70 | -7 | -0.3
16 | . | -6 | -2.5
17 | . | . | .
18 | 179 | -4 | -0.5
19 | . | -4 | -0.4
20 | . | 6 | -0.6
21 | . | 2 | -0.6
22 | 131 | -1 | -0.7
23 | . | . | .
24 | . | -9 | -2.7

Additional results:
# | Molecule | RGS16-Gao HTS | HSV augment | HSV augment primary fold | INS promoter inh
25 | O=C(CSc1ccc(F)cc1)Nc1ccc(Br)cc1 | 97 | i | 1 | .
26 | O=C(Nc1ccc(N2CCOCC2)cc1)C1CCN(S(=O)(=O)c2ccc3c(c2)OCCO3)CC1 | 98 | i | 1 | -15
27 | CCC(C)(C)n1nnnc1C(c1ccccc1)N1CCN(C2CCCC2)CC1 (stereo not given) | 109 | i | 1 | -15
28 | COc1cc(C=O)ccc1Oc1nnnn1-c1ccc(C(N)=O)cc1 | 98 | i | 1.1 | -21
29 | CCC(=O)c1ccc(OCC(O)CN2CCN(C(c3ccccc3)c3ccccc3)CC2)cc1 (stereo not given) | 99 | i | 0.88 | -14
30 | CC(C)N(C)CCOC(=O)c1ccccc1Cl | 100 | i | 1.1 | -7
31 | COc1ccc(OC)c(N2Cc3ccccc3C2)c1 | . | i | 0.82 | -39
32 | O=[N+]([O-])c1ccc(O)c(/C=N/Nc2nc3ccccc3[nH]2)c1 | 91 | i | 0.59 | 17
33 | O=C(O)COc1ccc(/C=N/n2c(COc3ccccc3)nc3ccccc3c2=O)cc1 | 94 | i | 1.1 | .
34 | COc1ccccc1CNC(=O)C1CCCN1S(=O)(=O)c1cccc2cccnc12 (stereo not given) | 108 | i | 1 | .
35 | C/C(=N\NC(=O)c1ccc(C)cc1C)c1ccc2c(c1)OCO2 | 117 | i | 0.7 | 28
36 | Cc1cccc(Nc2ncnc(N)c2[N+](=O)[O-])n1 | 104 | i | 0.87 | .

# | INS promoter inh cell count | PKD1 kinase inh | GALR2 ag
25 | . | -7 | .
26 | 111 | 1 | .
27 | 93 | -5 | -1.8
28 | 123 | -7 | -2.0
29 | 178 | -5 | -0.8
30 | 119 | 14 | -0.8
31 | 155 | -5 | -2.2
32 | 55 | 10 | -2.3
33 | . | 10 | -0.4
34 | . | -4 | -1.7
35 | 140 | -7 | -0.4
36 | . | -3 | .

(listing goes on)
# | Molecule | RGS16-Gao HTS | HSV augment | HSV augment primary fold | INS promoter inh
37 | CCCNS(=O)(=O)c1ccc(CCC(=O)N2CCC(C)CC2)cc1 | 106 | i | 0.89 | -13
38 | Cc1cc(-c2nnc(SCC(=O)Nc3nccs3)o2)no1 | 100 | i | 1.1 | .
39 | N#Cc1ccc(-c2csc(NC3=NCCCCC3)n2)cc1 | 160 | i | 0.93 | 17
40 | COc1cccc(NC(=O)[C@H](C)NC(=O)C2CCN(S(=O)(=O)c3ccc(C)cc3)CC2)c1 | 105 | i | 1 | .
41 | Cc1cc(NC(=O)C2CCCN2C(=O)Nc2cccc(Cl)c2)ccc1-n1cnnn1 (stereo not given) | 109 | i | 0.89 | 7
42 | O=C(NCc1ccc(F)cc1F)c1cc(COc2c(F)cccc2F)on1 | 102 | i | 1.1 | .
43 | O=C1C2CC=C(Cl)CC2C(=O)N1CCc1ccccc1 (stereo not given) | 102 | i | 0.56 | -18
44 | O=C(NCc1ccccc1F)C1CCCN1C(=O)NC1CCCCC1 (stereo not given) | 103 | i | 0.91 | 3
45 | Cc1ccc2c(c1)N(CC(=O)N1CCc3ccccc3C1)C(=O)CO2 | -11 | i | 1 | .
46 | O=C(NC(NC(=S)Nc1cccc(Cl)c1)C(Cl)(Cl)Cl)OCc1ccccc1 (stereo not given) | 97 | i | 0.67 | .
47 | COCCn1c(C)cc(C(=O)CSc2nnc3ccccn23)c1C | 101 | i | 0.86 | .
48 | COc1cc2[nH]c(=S)n(N(C(C)=O)C(C)=O)c(=O)c2cc1OC | 98 | i | 0.98 | 25

# | INS promoter inh cell count | PKD1 kinase inh | GALR2 ag
37 | 98 | -11 | 0.2
38 | . | . | .
39 | 56 | 4 | -2.1
40 | . | . | .
41 | 65 | 1 | .
42 | . | 7 | .
43 | 127 | -7 | -0.7
44 | 61 | -15 | -2.7
45 | . | 6 | 0.3
46 | . | -5 | 0.5
47 | . | -2 | -4.0
48 | 138 | 0 | -1.9

(listing goes on)
# | Molecule | RGS16-Gao HTS | HSV augment | HSV augment primary fold | INS promoter inh
49 | CCOC(=O)c1sc(=S)n(C)c1NC(=O)c1ccccc1C | 71 | i | 1.1 | 48
50 | CCn1nccc1C(=O)Nc1ccc(Cl)c(Cl)c1 | 91 | i | 0.92 | 56
51 | COc1ccc(OC)c(Cc2nnc(CCC(=O)N3CCC(N4CCCCC4)CC3)o2)c1 | 103 | i | 1 | -77
52 | O=C(O)C1CCN(C(=O)c2cc(F)cc3c2OCOC3)CC1 | 98 | i | 1.1 | .
53 | CCCC(NC(=O)CNC(=O)C(C)(C)C)C(=O)O (stereo not given) | 102 | i | 1 | -1
54 | Cc1ccc(/C=C2\SC(=S)N(CCCC(=O)Nc3nccs3)C2=O)cc1 | 85 | i | 0.99 | .
55 | COCCn1c(SCC(=O)Nc2sccc2C(N)=O)nnc1-c1ccncc1 | 102 | i | 0.98 | 36
56 | C=CCNC(=S)N/N=C/c1ccc(C)c([N+](=O)[O-])c1 | 62 | i | 0.7 | 50
57 | O=C(O)C1CCN(c2ccc([N+](=O)[O-])cc2[N+](=O)[O-])CC1 | 101 | i | 0.9 | .
58 | O=C(CN=C1NS(=O)(=O)c2ccccc21)OCC(=O)c1cc(F)ccc1F | 103 | i | 0.89 | 64
59 | COC(=O)Cc1c(C)nc2nc(-c3ccc(OC)cc3)[nH]n2c1=O | 97 | i | 0.92 | .
60 | CC(C)=CC(=O)OCC(=O)Nc1ccc(F)cc1Cl | 103 | i | 1 | .

# | INS promoter inh cell count | PKD1 kinase inh | GALR2 ag
49 | 107 | -3 | 0.3
50 | 135 | 7 | -2.7
51 | 83 | -1 | .
52 | . | . | .
53 | 104 | -1 | -2.7
54 | . | 3 | -1.6
55 | 139 | -1 | .
56 | 107 | -6 | 0.5
57 | . | . | .
58 | 87 | -5 | .
59 | . | -1 | 0.1
60 | . | -15 | 0.0

Next structures.
# | Molecule | RGS16-Gao HTS | HSV augment | HSV augment primary fold | INS promoter inh
61 | CC(Cl)C(=O)c1c[nH]c2ccccc12 (stereo not given) | 100 | i | 0.99 | .
62 | O=C(Cn1[nH]c(=O)c2ccccc2c1=O)Nc1ccc2c(c1)CCC2 | 105 | i | 0.94 | -7
63 | CC1=CCC2C(=O)N(c3ccc(S(N)(=O)=O)cc3)C(=O)C2C1 (stereo not given) | 100 | i | 0.92 | .
64 | O=C(CN1CCN(Cc2cccc(Cl)c2)C1=O)NCc1ccccn1 | 103 | i | 0.99 | .
65 | CC1C(=O)NN=C1C(=O)N/N=C\c1ccc(O)cc1O (stereo not given) | 100 | i | 0.95 | .
66 | COc1ccc(C(=O)NCC(=O)OCC(=O)NC2CCCC2)cc1 | 98 | i | 1.1 | 0
67 | NC(=O)C1(NC(=O)[C@@H]2CC3(CC(c4cccc(NC(=O)[C@@H]5CCC(=O)N5)c4)=NO3)CN2C(=O)c2cnccn2)CC1 (stereo not given in full) | 100 | i | 0.94 | .
68 | c1coc(CNc2c3c(nc4ncnn24)CCCC3)c1 | 114 | i | 0.77 | 0
69 | Cn1c(=O)c2[nH]c(N=Nc3ccc(N)cc3N)nc2n(C)c1=O | 108 | i | 0.94 | .
70 | CN(c1ccc(OCC(=O)OCC(=O)Nc2ccccc2)cc1)S(=O)(=O)c1ccc(F)cc1 | 45 | i | 1 | 6
71 | CCOC(=O)C1(CCCc2ccccc2)CCN(C(=O)CCN2CCCCC2=O)CC1 | 112 | i | 1.1 | .
72 | COCCNC(=O)c1ccccc1NC(=O)c1ccccc1N(C)S(C)(=O)=O | 109 | i | 1 | -42

# | INS promoter inh cell count | PKD1 kinase inh | GALR2 ag
61 | . | -5 | .
62 | 116 | 6 | -0.2
63 | . | . | .
64 | . | 3 | -2.1
65 | . | 6 | -0.4
66 | 74 | -1 | .
67 | . | -7 | -3.5
68 | 100 | -16 | -2.6
69 | . | . | .
70 | 99 | -2 | -1.2
71 | . | 6 | .
72 | 127 | -4 | -0.9

Molecules from the list above that have a thiophene ring, fused or not, in the order listed:
# | Molecule | RGS16-Gao HTS | HSV augment | HSV augment primary fold | INS promoter inh
1 | Cc1nc(C)c(C(=O)O)c(-c2cccs2)c1C(=O)O | 103 | i | 1 | .
12 | CN(C)/C=N/c1nccc(-c2cccs2)n1 | 71 | i | 0.98 | -22
55 | COCCn1c(SCC(=O)Nc2sccc2C(N)=O)nnc1-c1ccncc1 | 102 | i | 0.98 | 36

# | INS promoter inh cell count | PKD1 kinase inh | GALR2 ag
1 | . | . | .
12 | 99 | 1 | .
55 | 139 | -1 | .

Source: PubChem BioAssay (several laboratories)
